# Source: PubChem BioAssay
# KCNQ2 block: KCNQ2 channel blockers in CHO-K1 cells – cell-based, FluxOR thallium flux, B-score, primary screen (AID 2156) | O88943 | 20 min; stronger effect = lower value; only compounds with negative scores are shown here; some inactives read as strong as hits | B-score at 10 µM | actives 1.1% (n = 310,000);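 active = fluorescence ratio B-score at most minus 3 library SDs, with starting brightness B-score within 2 library SDs, cut at about -5.5 in these data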
# Target sequence (O88943 whole entry, looked up): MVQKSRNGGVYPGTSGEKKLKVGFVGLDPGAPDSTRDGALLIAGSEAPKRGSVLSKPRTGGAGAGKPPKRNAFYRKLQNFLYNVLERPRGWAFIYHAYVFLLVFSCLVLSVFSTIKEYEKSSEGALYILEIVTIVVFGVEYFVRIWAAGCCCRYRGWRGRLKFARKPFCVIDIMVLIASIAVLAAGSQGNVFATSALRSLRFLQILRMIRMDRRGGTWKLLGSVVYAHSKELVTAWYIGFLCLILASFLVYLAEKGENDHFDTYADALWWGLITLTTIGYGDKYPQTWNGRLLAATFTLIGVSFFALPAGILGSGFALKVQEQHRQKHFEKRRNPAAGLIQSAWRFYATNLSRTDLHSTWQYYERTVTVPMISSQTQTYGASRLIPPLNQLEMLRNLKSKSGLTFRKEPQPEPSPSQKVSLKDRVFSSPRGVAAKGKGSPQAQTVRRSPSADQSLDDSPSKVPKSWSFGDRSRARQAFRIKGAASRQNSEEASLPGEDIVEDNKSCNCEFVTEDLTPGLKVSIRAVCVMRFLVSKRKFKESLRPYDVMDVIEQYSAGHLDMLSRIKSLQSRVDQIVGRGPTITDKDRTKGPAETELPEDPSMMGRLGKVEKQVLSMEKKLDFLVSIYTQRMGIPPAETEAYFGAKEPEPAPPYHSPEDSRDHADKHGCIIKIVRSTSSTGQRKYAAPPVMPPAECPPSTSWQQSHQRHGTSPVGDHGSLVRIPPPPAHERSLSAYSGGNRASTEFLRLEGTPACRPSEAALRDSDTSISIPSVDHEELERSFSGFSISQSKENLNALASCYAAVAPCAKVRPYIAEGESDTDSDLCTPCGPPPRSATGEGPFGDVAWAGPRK
# KCNQ2 block baseline: further read-out of KCNQ2 block, marked with its call; B-score; measured here: initial fluorescence intensity artifact check;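 brightness before thallium and not channel activity; 0 = typical well and far values either way flag optical interference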
# * = called active by the depositor; i = inactive. The list is partial, so the mix of outcomes need not match the whole.
SMILES | KCNQ2 block | KCNQ2 block baseline
CNC(=O)COC(=O)Cc1ccc(Cl)cc1 | i | 0.91
COc1ccc(OC)c(NC(=O)Cn2c(=O)n(CC(=O)NCc3ccco3)c(=O)c3ccccc32)c1 | i | 1.24
COCCNC(=O)c1ccccc1NC(=O)c1cc(OC)cc(OC)c1 | i | -0.02
COc1ccc(-c2cc(C)no2)cc1S(=O)(=O)N1CCOc2ccccc21 | i | -1.71
c1ccc(C2OCC3(CO2)COC(c2ccccc2)OC3)cc1 (stereo unspecified) | i | -1.89
OCC1(CCc2ccccc2)CCCN(CCCc2ccccc2)C1 (stereo unspecified) | -6.62* | 2.4*
Cc1nc(N(C)Cc2ccccc2)c2c(C)c(C)sc2n1 | i | 0.13
CCCCCNC(=O)c1ccccc1SC | i | 2.55
COc1ccc(NC(=O)Cc2c(F)c(F)c(F)c(F)c2F)cc1OC | i | 0.06
CCOc1ccccc1NC(=O)Nc1ccc(Br)cc1C | i | 0.78
CCOc1ccccc1NC(=O)CSc1nc(=O)n(Cc2ccccn2)c2c1CCC2 | i | -2.61
COc1ccc(C)cc1S(=O)(=O)NCC(c1ccc2c(c1)OCO2)N1CCOCC1 (stereo unspecified) | i | 1.3
N#Cc1c(-c2ccc(F)cc2)cc(-c2cccs2)nc1SCC(=O)O | i | -0.45
Cc1cc(NC(=O)c2cc(-c3ccc(C)c(C)c3)nc3ccccc23)no1 | i | -0.14
O=C(CCS(=O)(=O)c1ccccc1)N(CCCN1CCOCC1)c1nc2ccccc2s1 | i | 0.43
COc1ccc(-c2nnc(-c3cc(OC)c(OC)c(OC)c3)o2)cc1OC | i | -1
O=C(O)C(=O)/C(=C\c1ccsc1)c1ccc2ccccc2n1 | i | 2.32
O=C(C1CCCN(S(=O)(=O)c2cc(Cl)ccc2Cl)C1)N1CCCCCC1 (stereo unspecified) | i | 0.13
CC(C)OCCCNc1ncc2c(n1)CC(c1ccc(N(C)C)cc1)CC2=O (stereo unspecified) | i | 0.01
CCOc1cc(C(=O)NCC2CCCO2)cc(OCC)c1OCC (stereo unspecified) | i | 0.15
CCN(C(=O)Nc1cccc(Cl)c1)c1ccccc1 | i | 3.58
CCOc1ccc(OCCSc2nc(N)cc(=O)[nH]2)cc1 | i | 1.57
CN(C1CCCCC1)S(=O)(=O)c1ccccc1 | i | 0.01
CC1C(=O)N2CCCc3cc(NS(=O)(=O)c4ccc([N+](=O)[O-])cc4)cc1c32 (stereo unspecified) | i | 0.3
CCC(Oc1ccc2ccccc2c1)C(=O)O (stereo unspecified) | i | 0.23
COc1ccc([N+](=O)[O-])cc1NC(=O)CSc1ccc2ccccc2c1 | i | 0.67
c1cnc(N2CCSCC2)nc1 | i | -0.97
COc1ccc(/C(C)=N/NC(=O)CNC(=O)CCc2ccccc2)c(OC)c1 | i | -0.65
NC(=O)C1(N2CCCCC2)CCN(C2CC(=O)N(Cc3ccc(N4CCCC4=O)cc3)C2=O)CC1 (stereo unspecified) | i | -0.2
COc1ccc(CNC(=O)c2ccc3nccnc3c2)cc1 | i | -3.82
Cc1cccc(N(CC(=O)N/N=C/c2cc([N+](=O)[O-])ccc2Cl)S(C)(=O)=O)c1C | i | -2.71
O=C(O)CNC(=O)C(c1ccccc1)c1ccccc1 | i | -0.13
c1ccc(Cc2nn[nH]n2)cc1 | i | -1.76
CC(C)Oc1ccc(C2NC(=O)c3ccccc3O2)cc1 (stereo unspecified) | i | 0.03
C=CCn1c(CCCOc2ccc(Cl)cc2Cl)n[nH]c1=S | i | 1.12
COC(=O)c1ccc(CSc2nc(C)nc3c2c(=O)n(C)c(=O)n3C)o1 | i | 0.05
CC(=O)Nc1ccc(S(=O)(=O)NNC(=S)NCc2ccco2)cc1 | i | 0.42
COc1cccc(CNC(=O)C2CCN(C(=O)N(C)C)CC2)c1 | i | -0.29
CC1(C)CC(=O)C=C(NCCN2CCN(C(=S)Nc3ccc(F)cc3)CC2)C1 | i | -0.18
O=C(Nc1c(S(=O)(=O)c2ccccc2)csc1Br)c1ccccc1Cl | i | 1.69
Cc1cccc(Nc2nnc(SCC(=O)Nc3ccccc3[N+](=O)[O-])s2)c1C | i | 0.16
C=CCOC(=O)C(=O)/C=C/c1coc2ccccc2c1=O | i | 0.81
COc1ccc(-c2[nH]c(-c3ccc(F)cc3)nc2SCC(=O)NCc2ccco2)cc1OC | i | 1.35
c1cncc(-c2nnc3sc(-c4ccco4)nn23)c1 | i | 1.05
Cc1ccc2c(c1)C(=O)C(=O)N2CC1COc2ccccc2O1 (stereo unspecified) | i | -0.41
COc1ccc(-n2cnnc2SCC(=O)Nc2ccc(N3CCOCC3)cc2)cc1 | i | 0.97
CCOC(CNc1cc(C)nc2c(-c3ccccc3OC)c(C)nn12)OCC | i | -0.34
CCN1CCc2c(sc(NC(=O)c3ccc(S(=O)(=O)N(CC)c4ccccc4)cc3)c2C(N)=O)C1 | i | 0.79
CCN(CC)CCCN(C(=O)c1cccc(C)c1)c1nc(-c2ccc(OC)cc2)cs1 | i | -1.8
CCCCCC(=O)Nc1cccc(C2=NOC3(C2)C[C@H](C(N)=O)N(C(=O)CC#N)C3)c1 (stereo partly specified) | i | -0.92
CCCNC(=O)CCn1nc(-c2ccc(Cl)cc2)c2ccccc2c1=O | i | 2.54
CCc1cccc(NS(=O)(=O)c2c(C)nc3scc(C)n3c2=O)c1 | i | 1.07
O=C(CSc1nnc(-c2ccc(O)cc2)n1Cc1ccco1)N1CCc2ccccc2C1 | i | 1.36
CCOC(=O)CSc1nc(=O)n2cccc(C)c2n1 | i | -0.83
O=C(COc1ncnc2c(Cl)cc(Cl)cc12)Nc1cc([N+](=O)[O-])ccc1Cl | i | -0.01
O=c1cc(C(F)(F)F)nc(SCc2cccc3ccccc23)[nH]1 | i | 1.25
COc1cc(/C=N/Nc2nc(N3CCCCC3)nc(N3CCCCC3)n2)ccc1OC(=O)c1ccco1 | i | -0.78
COc1ccccc1C(=O)NCCC(=O)N1CCCC(C)C1 (stereo unspecified) | i | -0.51
COc1cc(/C=C(\C#N)C(N)=O)ccc1OCc1c(C)no[n+]1[O-] | i | -2.15
O=C1CCCc2oc3ccc(NS(=O)(=O)c4cccc5cccnc45)cc3c21 | i | -1.18

# The list continues.
# Values run as follows: KCNQ2 block | KCNQ2 block baseline
> Cc1cc(Cl)c2oc(C(=O)N(C)C3CCOC3)c(C)c2c1 (stereo unspecified)
 : i | -1.9
> CCOc1ccc(N(C(=O)c2cnccn2)C(C(=O)NC2CCCCC2)c2ccc(O)cc2)cc1 (stereo unspecified)
 : i | 0.58
> O=C(c1ccc(CS(=O)(=O)c2ccccc2)o1)N1CCN(c2ccccc2)CC1
 : i | -2.36
> CCOC(=O)/C=c1\s/c(=C\c2ccc(C)cc2)c(=O)n1CC(=O)NCc1ccco1
 : i | 1.15
> COc1ccc(-c2nnc(SCC#CCO)o2)cc1OC
 : i | -0.87
> CCOC(=O)C1(Cc2cccc(F)c2)CCN(CC(O)CO)CC1 (stereo unspecified)
 : i | -1.48
> Cc1ccc(S(=O)(=O)c2nc(-c3ccccc3Cl)oc2NCCCN2CCOCC2)cc1
 : i | 0.62
> CCn1cc(/C=N\NC(=O)Cc2ccc([N+](=O)[O-])cc2)c(C)n1
 : i | 0.28
> O=[N+]([O-])c1ccc(COc2cccc3cccnc23)cc1
 : i | 0.09
> COCCn1c(SCc2nc3cc(OC)c(OC)cc3c(=O)[nH]2)nnc1-c1ccncc1
 : i | 1.38
> CN(C)S(=O)(=O)c1cccc(C(=O)NC(=S)N(CCC#N)Cc2cccnc2)c1
 : i | 0.08
> CNC(=O)c1sc(Nc2cc(C)ccc2C)nc1C
 : i | 0.03
> O=C(CCc1nnc2n(Cc3ccccc3)c(=O)c3ccccc3n12)NCCCN1CCCCC1
 : i | -0.5
> CCCCCNCC(=O)Nc1cc(C(F)(F)F)ccc1OCCOC
 : i | -0.37
> O=c1ccnc(SCCc2ccc([N+](=O)[O-])cc2)[nH]1
 : i | 0.77
> COc1ccccc1NC(=O)C1CCCN(S(=O)(=O)c2ccc(-n3cnnn3)cc2)C1 (stereo unspecified)
 : i | 1.09
> CCOC(=S)SCC(=O)Nc1nccs1
 : i | 0.26
> Cc1c(C)c2c(OCC(=O)Nc3ccc(CCO)cc3)cc3c(c2oc1=O)CCC(C)(C)O3
 : i | -1.8
> COc1cc(CN2CCCCCC2)c([N+](=O)[O-])cc1OC
 : i | 1.22
> CCCOc1ccc(NC(=O)C2CCCNC2=O)cc1 (stereo unspecified)
 : i | 1.54
> CN1CCN(S(=O)(=O)c2cccc(C(=O)N(Cc3nnc(-c4ccccc4Cl)o3)C3CC3)c2)CC1
 : i | -1.2
> O=[N+]([O-])c1ccc(OCCCCN2CCc3ccccc3C2)cc1
 : i | -1.18
> O=C(Nc1ccc(S(=O)(=O)N2CCCC2)cc1)c1cccs1
 : i | 2.45
> Cc1ccccc1SCCNC(=O)c1ccccc1Br
 : i | -0.19
> Cc1ccc(C(=O)COC(=O)CNC(=O)c2ccco2)cc1
 : i | -0.39
> CCCCC1CCC(C(=O)N(CC(C)C)c2c(N)n(Cc3ccccc3)c(=O)[nH]c2=O)CC1 (stereo unspecified)
 : i | 0.74
> Cc1cc(NC(=O)CN(C)C)c([N+](=O)[O-])cc1C
 : i | 1.43
> CCOC(=O)C1CCCN(Cc2ccc(OCc3ccccc3)cc2)C1 (stereo unspecified)
 : i | 0.03
> COc1cccc(OCC(O)CN2CCN(c3ccc(Cl)cc3)CC2)c1 (stereo unspecified)
 : i | -0.47
> COc1ccc(/C=C(\C#N)C(=O)N2CCOCC2)cc1Br
 : i | -0.02
> O=C1Cc2ccccc2C(=O)N1Cc1ccccc1
 : i | 3.05
> COc1ccc(NC(=O)CN2C(=O)C(C)SC(C)C2=O)c(OC)c1 (stereo unspecified)
 : i | -0.08
> Cc1ccc(Cl)c(OCC(=O)NCc2ccco2)c1
 : i | 2.09
> COc1ccc(N2C(=O)C(CC(N)=O)N(NC(=O)CCc3ccccc3)C2=O)cc1 (stereo unspecified)
 : i | -0.07
> COc1cccc(CNC(=O)CN2C(=O)CSc3ccc(S(=O)(=O)N4CCCC4)cc32)c1
 : i | -1.02
> COc1cccc(CN2CCN(C(=O)c3cccc4ccccc34)CC2)c1
 : i | 1.16
> CC1=NN(c2ccccc2)C(=O)/C1=C\C=C1/N(C)c2ccccc2C1(C)C
 : i | -1.24
> Cn1ncc(C#N)c1NC(=O)C1CC(c2ccccc2Cl)=NO1 (stereo unspecified)
 : i | 4.65
> Cc1cccc(Cn2nc(C)cc2NC(=O)CCCn2ccc([N+](=O)[O-])n2)c1
 : i | 1.33
> CCOC(=O)C1=C(C)NC(=O)NC1c1cn(-c2ccccc2)nc1-c1cccs1 (stereo unspecified)
 : i | -0.23
> CCOCCCNS(=O)(=O)c1ccc(NC(=O)c2ccc(OC)c([N+](=O)[O-])c2)cc1
 : i | 1.27
> C#CC[N+](C)(C)CCCCCCCCCC
 : i | -0.52
> O=C(C[n+]1ccc2ccccc2c1)c1ccccc1
 : i | 2.1
> CCN(CC)S(=O)(=O)c1ccc(C(=O)Nc2ccc(Cc3ccncc3)cc2)cc1
 : i | 1.16
> COc1cc2c(cc1NC(=O)c1cccc(Br)c1)CCCC2
 : i | -0.74
> O=C(c1cnc(N2CCN(c3ccccn3)CC2)c2ccccc12)N1CCN(c2cccc(Cl)c2)CC1
 : -7.93* | 0.3*
> CN(C)c1ccc(-c2cc([C@H]3[C@@H]4C=CCC[C@@]4(C)C(=O)N3Cc3ccccc3)ccc2F)cc1
 : i | 0.12
> CC(C)(C)NCC1(CO)SC(N)=NC1=O (stereo unspecified)
 : i | 2.01
> CC(C)NS(=O)(=O)c1ccc(CCC(=O)N2CCCC2)cc1
 : i | -1.24
> Cc1ccc(Sc2c(C)nn(C(=O)C3CC3)c2C)cc1
 : i | 2.49
> Cc1ccc(C2=CSC3=NS(=O)(=O)CCN23)cc1C
 : i | 0.74
> CN(C)C(CNS(=O)(=O)c1ccc(Br)cc1)c1cccnc1 (stereo unspecified)
 : i | 0.05
> CC(C)(C)C(=O)NC(=S)NCc1ccccc1
 : i | 1.42
> CCCn1c2ccccc2c2cnn(CC(=O)N(CC)CC)c(=O)c21
 : i | -0.09
> Cc1cccc(OCCSc2nc(N)cc(N)n2)c1
 : i | -0.25
> Cc1ccc(N(CC2CO2)S(=O)(=O)c2ccc([N+](=O)[O-])cc2)cc1 (stereo unspecified)
 : -6.83* | -0.13*
> C=CCNC(=O)N1CCC(n2nccc2NC(=O)CCCc2ccccc2)CC1
 : i | 1.11
> O=c1c2cc3c(cc2[nH]c(=S)n1C1CCN(Cc2ccccc2)CC1)OCO3
 : i | 2.77
> CCC1(C(=O)c2ccccc2)C(c2cccc([N+](=O)[O-])c2)C1(C(=O)OC)C(=O)OC (stereo unspecified)
 : i | 1.95
> O=C(O)c1cc(C2CC2)nn1-c1ccccc1
 : i | 1.33

# Among those listed so far, seven contain a thiophene ring, fused or not.
# Values run as follows: KCNQ2 block | KCNQ2 block baseline
> Cc1nc(N(C)Cc2ccccc2)c2c(C)c(C)sc2n1
 : i | 0.13
> N#Cc1c(-c2ccc(F)cc2)cc(-c2cccs2)nc1SCC(=O)O
 : i | -0.45
> O=C(O)C(=O)/C(=C\c1ccsc1)c1ccc2ccccc2n1
 : i | 2.32
> O=C(Nc1c(S(=O)(=O)c2ccccc2)csc1Br)c1ccccc1Cl
 : i | 1.69
> CCN1CCc2c(sc(NC(=O)c3ccc(S(=O)(=O)N(CC)c4ccccc4)cc3)c2C(N)=O)C1
 : i | 0.79
> O=C(Nc1ccc(S(=O)(=O)N2CCCC2)cc1)c1cccs1
 : i | 2.45
> CCOC(=O)C1=C(C)NC(=O)NC1c1cn(-c2ccccc2)nc1-c1cccs1 (stereo unspecified)
 : i | -0.23

# A portion from the list above, as a working copy:
# Values run as follows: KCNQ2 block | KCNQ2 block baseline
> O=c1c2cc3c(cc2[nH]c(=S)n1C1CCN(Cc2ccccc2)CC1)OCO3
 : i | 2.77
> CCC1(C(=O)c2ccccc2)C(c2cccc([N+](=O)[O-])c2)C1(C(=O)OC)C(=O)OC (stereo unspecified)
 : i | 1.95
> O=C(O)c1cc(C2CC2)nn1-c1ccccc1
 : i | 1.33
